Compound activity from PubChem BioAssay.
T cruzi repl = T. cruzi replication inhibition | 300,000 compounds, 1.4% hits | inhibition, % (test concentration not listed) | T. cruzi beta-gal in NIH3T3, luminescence, 90 h;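 active = mean inhibition across valid replicates above about 55%, limit read from the data; inconclusive = mean below that limit but half or more replicates reach it; inactive = mean below it, under half of replicates reach it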;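 note: signal also drops with host cell toxicity which is not excluded here; 0% = plate median of DMSO wells and 100% = zero luminescence signal; higher percent means less beta-gal luminescence so fewer parasites; stock transfer was 50 nL into about 50 µL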
E coli growth = blocks Escherichia coli growth; OD600, 23 h; stronger effect = lower value; OD600 absorbance (test concentration not listed); 330,000 compounds, 0.21% hits;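 active = OD600 absorbance below the run mean of sample wells minus 3.6 SD, in any replicate, cut at about 0.56 in these data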;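 note: stock transfer was 300 nL into about 60 µL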
Beta apoptosis = beta cell apoptosis inhibition. INS-1E cytokine-induced death, ATP luminescence, 48 h; percent of positive-control rescue, neutral wells zero. protection from apoptosis, % (concentration not given with the values). AID 435005. 300,000 compounds, 0.8% hits;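 active = all replicates at 75% or more, or half of them and the mean; inconclusive = half reach 75% but not the mean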;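 note: 0% = cytokine-treated negative control wells and 100% = positive control rescue; higher means more ATP so stronger rescue from cytokine killing; wells of about 40 µL received 100 nL stock; the first replicate is given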
Bfl-1 A1 inh = inhibitors of the anti-apoptotic protein A1, read as caspase activation | caspase activation, % (concentration not given with the values) | AID 2462 | 330,000 compounds, 0.066% hits | MEF A1-2A-BIM cells, Caspase-Glo 3/7 luminescence, 3 h; percent of clofoctol response, vehicle zero;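 active = over half of replicate activation scores above 10%, or exactly half above 10 with the replicate mean above 10; inconclusive = replicate mean below 10 yet half the replicates above 10; inactive = over half of replicates below 10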;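 note: wells of about 30 µL received 50 nL stock; many hits fall short of the cut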
rRNA inh HTS = inhibitors of bacterial rRNA selective over humanized ribosomes; E. coli WT GFP vs humanized-ribosome RFP mutants, fluorescence, 24 h; stronger effect = lower value; DMSO median 0, no signal -100; GFP signal change (wild-type ribosome), % (test concentration not listed); 350,000 compounds, 1.6% hits; AID 720706;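 active = significant combined selectivity score with lowered wild-type GFP, culture density cut under 30%, mutant RFP and density less affected; inactive = any of these conditions unmet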; note: one replicate is shown; some compounds called inactive have numbers as strong as hits
AF4-AF9 inh = MLL-AF4/AF9 protein interaction inhibition; inhibition, % at 10 µM; P42568; AlphaScreen, biotin-AF4 peptide binding to FLAG-AF9; 350,000 compounds, 0.47% hits;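 active = every replicate reaching a set inhibition limit, whatever the replicate mean, cut at about 25% in these data; inconclusive = mean inhibition reaches that limit but some replicates miss it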;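 note: 0% = plate neutral control median and 100% = total signal loss; the record names both 10 and 1 µM as test concentration; the first replicate is given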
Target sequence (P42568 whole entry, looked up): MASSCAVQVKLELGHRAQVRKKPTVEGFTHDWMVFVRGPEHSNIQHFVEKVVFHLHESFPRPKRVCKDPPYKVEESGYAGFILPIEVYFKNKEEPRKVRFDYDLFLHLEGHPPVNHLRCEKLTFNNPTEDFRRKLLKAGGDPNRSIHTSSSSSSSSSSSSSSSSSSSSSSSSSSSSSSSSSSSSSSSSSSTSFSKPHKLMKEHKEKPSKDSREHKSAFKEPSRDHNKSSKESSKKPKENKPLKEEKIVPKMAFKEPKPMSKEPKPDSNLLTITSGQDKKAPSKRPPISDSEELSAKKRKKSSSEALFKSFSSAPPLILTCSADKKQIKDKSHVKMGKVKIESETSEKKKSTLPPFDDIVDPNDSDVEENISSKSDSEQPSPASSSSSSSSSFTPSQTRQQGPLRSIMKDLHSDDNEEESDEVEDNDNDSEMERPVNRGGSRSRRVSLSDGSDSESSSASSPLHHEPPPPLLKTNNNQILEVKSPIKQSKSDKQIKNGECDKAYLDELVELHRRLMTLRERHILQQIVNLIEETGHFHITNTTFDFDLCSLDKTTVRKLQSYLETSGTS
FGF22 binding = binders of recombinant human FGF22 by thermal shift; Q9HCT0; SYPRO orange fluorescence; percent of sucrose octasulfate shift, DMSO zero; calls only at 9.99 µM; 340,000 compounds, 1.5% hits;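 active = melting point raised past a set limit in the mean and every replicate; inconclusive = no clear call; three in four hits are not shown here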
Target sequence (Q9HCT0 whole entry, looked up): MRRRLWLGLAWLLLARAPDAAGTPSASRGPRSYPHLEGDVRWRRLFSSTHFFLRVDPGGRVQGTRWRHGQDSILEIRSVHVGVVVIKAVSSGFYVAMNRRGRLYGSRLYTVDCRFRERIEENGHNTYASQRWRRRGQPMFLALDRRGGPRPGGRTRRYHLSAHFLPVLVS
UCH37 inh = human UCH37 deubiquitinating enzyme inhibition; purified proteasome/UCH37, Ub-AMC cleavage fluorescence; inhibition, % (no concentration beside the values); 330,000 compounds, 0.33% hits;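 active = mean of two replicates above 20%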;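 note: 0% = compound-free wells with enzyme and 100% = wells lacking proteasome; stock transfer was 100 nL into about 20 µL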
Target sequence (Q9Y5K5 whole entry, looked up): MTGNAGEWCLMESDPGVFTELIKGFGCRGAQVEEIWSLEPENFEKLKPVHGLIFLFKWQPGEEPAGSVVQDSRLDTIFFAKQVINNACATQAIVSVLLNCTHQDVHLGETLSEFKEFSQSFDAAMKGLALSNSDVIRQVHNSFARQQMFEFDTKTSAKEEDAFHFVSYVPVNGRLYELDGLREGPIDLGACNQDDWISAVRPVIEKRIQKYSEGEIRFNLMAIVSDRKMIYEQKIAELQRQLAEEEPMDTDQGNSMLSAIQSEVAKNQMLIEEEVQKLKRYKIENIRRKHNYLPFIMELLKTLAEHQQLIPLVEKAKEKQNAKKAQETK
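Signal – fluorescence, ex 355 nm, em 460 nm · System – Proteasome-bound UCH37 · Input – 0.15 nM proteasome as dispensed · Timing – 30 min preincubation with enzyme, 25 min cleavage at room temperature · Read-out basis – percent inhibition of cleavage signal versus uninhibited and no-proteasome wells · Medium – Tris-HCl pH 7.4 with ATP-MgCl2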
rRNA inh HTS OD600 = also measured in rRNA inh HTS; calls as there; OD600 change, %; measured here: OD600 growth;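 optical density of the mix in the first replicate; 0 = DMSO median and -100 = no signal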
rRNA inh HTS RFP = also measured in rRNA inh HTS; calls as there; RFP signal change, %; measured here: RFP humanized mutant strains;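 first replicate; 0 = DMSO median and -100 = no signal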
Starred values were filed as active, the others as inactive; i = inactive; u = inconclusive; x = no result given; + = active, no number.

SMILES	T cruzi repl	E coli growth	Beta apoptosis	Bfl-1 A1 inh	rRNA inh HTS	rRNA inh HTS OD600	rRNA inh HTS RFP	AF4-AF9 inh	FGF22 binding	UCH37 inh
CC1CCN(CCCCOc2ccc([N+](=O)[O-])cc2)CC1	20	0.64	2	-0.1	11	5	-4.4	-2.6	i	8.0
O=C(O)CC(C(=O)Nc1ccc(Cl)cc1Cl)C1CCCO1 (centres undefined)	-7	0.67	-2	0.8	17	10	1.0	-2.6	x	1.2
Cn1ncc2c(NNC(=O)C3CCCCC3)ncnc21	-2	0.66	1	0.0	19	14	1.3	0.0	i	0.1
CCC1CCCCN1C(=O)c1cc2cc(Br)ccc2oc1=O (centres undefined)	-7	0.72	-8	0.5	1	7	-0.3	-0.9	i	1.2
CC1CN(C(=O)c2cccc(COc3ccccc3Cl)c2)CC(C)O1 (centres undefined)	12	0.75	-16	0.1	-14	-17	-1.2	0.9	i	4.2
CCOc1ccc(-c2ccc(SCC(=O)N3CCN(c4ccccc4)CC3)nn2)cc1	-18	0.72	0	-0.1	x	x	x	x	x	-0.1
CCOCCCNC(=S)NNC(=O)CCn1nc(C)c(Br)c1C	-12	0.71	-2	0.8	9	-5	-5.6	-2.7	i	4.4
CC(=O)N1CCN(C(=O)CC2OC(=O)c3ccccc32)CC1 (centres undefined)	-37	0.74	-8	-0.4	x	x	x	x	x	2.6
Cc1cccc(NS(=O)(=O)c2ccccc2)n1	-5	0.73	-1	0.8	2	-2	-2.8	x	x	-31
CCNC(=O)NC(=O)C(C)Sc1nc2ccccc2n1CC(C)C (centres undefined)	-2	0.7	1	1.0	x	x	x	x	x	1.0
COc1cc(/C=C/C(=O)OCC(=O)NCc2ccco2)cc(OC)c1OC	-6	0.72	-5	0.7	-25	-24	-1.6	5.7	i	-3.0
Cc1ccccc1NC(=O)c1ccc(NC(=O)C2CC(=O)OC23CCCCC3)cc1 (centres undefined)	-11	0.69	x	x	-14	-5	5.9	1.6	i	1.2
CC1(C)Cc2nc3sc4c(=O)n(CC(=O)NCc5ccccc5)cnc4c3cc2CO1	-44	0.76	3	-0.2	x	x	x	x	x	-86
Cc1cc(C)c2c(CC(=O)N3CCCC3)coc2c1	-9	0.71	-1	-0.4	11	7	1.0	-9.3	i	3.7
Cc1ccc(NC(=O)c2ccc(=O)n(CC(=O)Nc3c(C)cc(C)cc3C)n2)cc1	-6	0.68	1	1.0	11	16	1.3	-0.8	i	4.7
C=C(C)COc1ccc(-c2nc(N)ncc2-c2ccccc2OC)c(O)c1	39	0.68	-22	-0.3	-3	-2	6.1	14	i	4.2
CCOC(=O)c1sc2nc(NC(=O)C3CCCCC3)sc2c1C	16	0.75	1	0.9	-3	2	0.3	-6.8	i	-16
COc1ccc(C(C(=O)NC2CCCC2)N(C(=O)c2snc(C(N)=O)c2N)c2cc(C)ccc2OC)cc1OC (centres undefined)	18	0.65	5	0.8	7	7	-1.6	1.1	i	-22
CCCc1nnc(SCC(=O)N2CCCCC2C)n1CCCOC (centres undefined)	-13	0.7	0	-0.1	x	x	x	x	x	4.9
CCCCN(C(=O)CSc1cc(C)c2ccccc2n1)c1c(N)n(Cc2ccccc2)c(=O)[nH]c1=O	6	0.72	x	2.4	7	7	2.2	-5.7	i	2.5
Cc1ccc(C(=O)Nc2ccc3cn[nH]c3c2)cc1S(=O)(=O)N1CCCCC1	-15	0.78	4	3.4	x	x	x	x	x	1.8
Cc1nc2cc(C(F)(F)F)ccc2n1C1CCN(C(=O)N2CCOCC2)CC1	-5	0.72	3	-0.2	x	x	x	x	x	3.4
CC(C)CC(=O)Nc1ccc(C(=O)COC(=O)C2=COCCO2)cc1	-16	0.57	-6	-0.9	4	8	-0.3	0.4	i	1.8
Cc1cc(/C=C(\C#N)C(=O)O)c(C)n1CC1CCCO1 (centres undefined)	-8	0.66	-5	0.3	17	11	-0.2	0.1	x	18
Cn1ncc(Cl)c1C(=O)Nc1cccnc1	-2	0.66	-6	1.0	x	x	x	x	x	4.9
O=C(c1ccc(F)cc1)C1CCN(C(=O)Nc2ccccc2Cl)CC1	-2	0.67	1	1.2	-30	-33	-4.9	-1.9	i	1.8
COc1ccc(/C(C)=N/N2C(=O)c3ccccc3NC2c2ccc(O)c(OC)c2)cc1 (centres undefined)	-12	x	-1	-2.4	6	5	1.1	-1.5	x	x
O=C1[C@H]2[C@@H](/C=C/c3ccccc3)N3C(=O)CN(CCO)C(=O)[C@@]3(Cc3ccccc3)[C@H]2C(=O)N1c1ccccc1	-15	x	2	-1.2	-1	4	-16	-1.1	i	1.8
Cc1c(Br)c([N+](=O)[O-])nn1CC(=O)N1CCc2ccccc21	12	0.68	1	0.0	13	9	-2.2	0.9	i	1.1
O=C(Nc1nc2ccc(S(=O)(=O)N3CCCCC3)cc2s1)C1CCCO1 (centres undefined)	14	0.66	0	-0.2	x	x	x	x	x	5.0
COc1cccc2sc(NNC(=O)C3COc4ccccc4O3)nc12 (centres undefined)	-6	0.69	7	-0.1	-60	-76	-20	1.7	+	0.0
Cc1ccc(SC(c2ccccc2)C(Cn2cncn2)C(=O)c2ccccc2)cc1 (centres undefined)	-27	0.71	-12	0.2	x	x	x	x	x	42*
CN(c1ccccc1)S(=O)(=O)c1cccc(NC(=O)C2=NNC(=O)CC2)c1	x	0.65	2	-1.3	5	8	6.7	-1.2	i	0.7
CC(c1nnc(SCC(=O)c2c(N)n(C)c(=O)n(C)c2=O)n1-c1ccc(Cl)cc1)N(C)C (centres undefined)	-3	0.69	-7	-0.6	1	9	1.7	2.5	i	2.5
C/C(=N\NC(=O)NC1CCCCC1)c1ccc(Cl)s1	-4	x	1	-0.5	12	2	1.5	5.1	i	x
CC(=O)Oc1ccc(-c2ccc(C(=O)OCC(=O)c3c(N)n(C)c(=O)n(C)c3=O)cc2)cc1	x	0.68	1	-0.7	-12	9	7.7	-2.8	i	2.2
CCc1ccc2oc(-c3cccc(NC(=O)c4cccnc4)c3)nc2c1	-10	0.69	0	0.8	x	x	x	x	x	0.9
COc1cccc(OC)c1C(=O)Nc1cccc2c1CCCC2	6	0.68	-10	0.1	4	6	0.0	-2.7	i	0.0
COc1cc(C(=O)Nc2nnc(C)s2)c([N+](=O)[O-])cc1OC	-1	0.7	-3	-1.0	4	8	-0.3	-1.7	i	8.5
Cc1ccc(C(=O)N/N=c2\sc3ccccc3n2C)cc1	7	x	0	-0.1	x	x	x	-0.3	i	x
CCCNC(=O)c1ccccc1C(=O)NC1(C(=O)NCCC)CCCC1	-3	x	-4	2.0	6	1	4.0	0.8	i	x
O=C(NCCN1CCOCC1)[C@H](Cc1ccccc1)N1C(=O)c2ccccc2C1=O	-37	0.77	-3	-0.2	x	x	x	x	x	-2.2
Cc1cc(NC(=O)CSCC(=O)N(C)Cc2ccc(F)cc2)no1	-9	0.7	-16	-0.4	-4	2	-3.0	15	i	-3.5
COc1ccc(CCNC(=O)c2c(O)c3ccccc3[nH]c2=O)cc1	-3	0.71	1	-1.8	22	17	3.7	1.1	i	-6.2
CSc1ncnc2sc(C)c(C)c12	-10	0.65	-3	0.8	14	11	-0.9	-3.0	x	2.9

Random excerpt: three records from the list.
SMILES	T cruzi repl	E coli growth	Beta apoptosis	Bfl-1 A1 inh	rRNA inh HTS	rRNA inh HTS OD600	rRNA inh HTS RFP	AF4-AF9 inh	FGF22 binding	UCH37 inh
COc1cccc2sc(NNC(=O)C3COc4ccccc4O3)nc12 (centres undefined)	-6	0.69	7	-0.1	-60	-76	-20	1.7	+	0.0
CC(=O)Oc1ccc(-c2ccc(C(=O)OCC(=O)c3c(N)n(C)c(=O)n(C)c3=O)cc2)cc1	x	0.68	1	-0.7	-12	9	7.7	-2.8	i	2.2
CC(c1nnc(SCC(=O)c2c(N)n(C)c(=O)n(C)c2=O)n1-c1ccc(Cl)cc1)N(C)C (centres undefined)	-3	0.69	-7	-0.6	1	9	1.7	2.5	i	2.5

(continued)
SMILES	T cruzi repl	E coli growth	Beta apoptosis	Bfl-1 A1 inh	rRNA inh HTS	rRNA inh HTS OD600	rRNA inh HTS RFP	AF4-AF9 inh	FGF22 binding	UCH37 inh
CN(CC(=O)O)C(=O)c1ccccc1	x	0.72	x	x	12	10	0.7	-2.8	i	1.5
O=S1(=O)CC2SC(=S)N(Cc3ccccc3)C2C1 (centres undefined)	-9	0.7	-1	0.1	11	2	-1.1	-3.8	i	-1.7
Cn1c(CO)cnc1-c1ccccc1	-7	0.71	-16	0.4	7	5	-2.7	-1.9	i	-1.6
Cc1nc2ccc(CCO)cc2s1	-3	0.69	-10	1.5	x	x	x	x	x	-0.5
CCOC(=O)c1ccc(NC(=O)CN(C)S(=O)(=O)c2ccc(Br)s2)cc1	15	0.67	-2	-0.1	x	x	x	x	x	1.6
Cc1nc2ccccn2c(=O)c1NC(=O)c1cccc2ccccc12	-2	0.64	-2	-0.5	4	0	-2.5	u	i	2.6
Cc1[nH]c2ccccc2c1SCC(=O)NNC(=O)Nc1ccc(OC(F)(F)F)cc1	13	0.64	-4	0.0	x	x	x	4.2	i	3.2
Cc1cc(C)c2nc(SC(C)C(=O)NCC(=O)Nc3ccc(F)c(F)c3F)cc(C)c2c1 (centres undefined)	26	0.72	-2	0.6	14	21	3.7	2.9	x	2.1
O=C(CCCCCCCC(=O)N1CCCCC1)N1CCCCC1	x	0.65	x	x	-2	1	-5.3	-0.8	i	-1.2
O=C(NCc1ccccc1)Nc1cccn(Cc2c(F)cccc2Cl)c1=O	43	0.71	11	0.3	-2	-9	0.4	-1.1	i	-10
COc1ccc2cc(CCNC(=O)CCc3ccccc3)c(=O)[nH]c2c1	11	0.72	x	-2.0	-3	2	-4.2	-4.2	i	-3.0
COc1ccc(/C=C(\NC(=O)c2ccccc2)C(=O)N2CCN(C)CC2)cc1	-5	0.67	-11	0.8	5	10	-1.0	-1.7	i	3.7
Cc1c(NC(=O)CCCCCN2C(=O)C3C4C=CC(C4)C3C2=O)c(=O)n(-c2ccccc2)n1C (centres undefined)	4	0.7	-2	-0.3	5	3	-1.9	0.1	i	3.3
Cc1c(C(=O)N2CCN(S(=O)(=O)c3cccs3)CC2)oc2ccc(F)cc12	x	0.7	1	-0.6	1	5	-1.3	-0.3	i	5.8
COc1ccc(C)cc1S(=O)(=O)Nc1cc2c3c(c1)C(C)C(=O)N3CCC2 (centres undefined)	1	0.69	1	0.4	5	18	-0.4	8.7	i	3.5
Cc1c(NC(=O)C(C)N(c2ccccc2)S(C)(=O)=O)c(=O)n(-c2ccccc2)n1C (centres undefined)	0	x	-2	0.1	-1	5	-2.1	-7.6	i	x
CN(Cc1nc2ccccc2c(=O)[nH]1)CC(O)COCc1ccco1 (centres undefined)	-13	0.7	-1	0.4	x	x	x	x	x	1.8
Cn1c(CSCc2ccc(Cl)cc2)nnc1SCC(=O)Nc1nccs1	-10	0.72	x	0.8	20	20	-1.7	x	x	0.3
Cc1nc2c(cc1NC(=O)C(C)(C)C)nc(C)n2Cc1ccccc1	-5	0.72	-3	0.9	4	5	2.3	-1.1	i	4.6

Some of the compounds tested; the hit share may differ from the screen's.
